Screening results as filed in PubChem BioAssay.
KCNQ2 block: KCNQ2 potassium channel inhibitors, primary screen, cell-based, CHO-K1, FluxOR thallium flux, B-score (AID 2156) | Potassium voltage-gated channel subfamily KQT member 2 (Rattus norvegicus), O88943 | 20 min; hits give low values; only compounds with negative scores are shown here; some inactives read as strong as hits | B-score at 10 µM | 310,000 compounds, 1.1% hits;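 active = fluorescence ratio B-score at most minus 3 library SDs, with starting brightness B-score within 2 library SDs, cut at about -5.5 in these data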
Target sequence (O88943 whole entry, looked up): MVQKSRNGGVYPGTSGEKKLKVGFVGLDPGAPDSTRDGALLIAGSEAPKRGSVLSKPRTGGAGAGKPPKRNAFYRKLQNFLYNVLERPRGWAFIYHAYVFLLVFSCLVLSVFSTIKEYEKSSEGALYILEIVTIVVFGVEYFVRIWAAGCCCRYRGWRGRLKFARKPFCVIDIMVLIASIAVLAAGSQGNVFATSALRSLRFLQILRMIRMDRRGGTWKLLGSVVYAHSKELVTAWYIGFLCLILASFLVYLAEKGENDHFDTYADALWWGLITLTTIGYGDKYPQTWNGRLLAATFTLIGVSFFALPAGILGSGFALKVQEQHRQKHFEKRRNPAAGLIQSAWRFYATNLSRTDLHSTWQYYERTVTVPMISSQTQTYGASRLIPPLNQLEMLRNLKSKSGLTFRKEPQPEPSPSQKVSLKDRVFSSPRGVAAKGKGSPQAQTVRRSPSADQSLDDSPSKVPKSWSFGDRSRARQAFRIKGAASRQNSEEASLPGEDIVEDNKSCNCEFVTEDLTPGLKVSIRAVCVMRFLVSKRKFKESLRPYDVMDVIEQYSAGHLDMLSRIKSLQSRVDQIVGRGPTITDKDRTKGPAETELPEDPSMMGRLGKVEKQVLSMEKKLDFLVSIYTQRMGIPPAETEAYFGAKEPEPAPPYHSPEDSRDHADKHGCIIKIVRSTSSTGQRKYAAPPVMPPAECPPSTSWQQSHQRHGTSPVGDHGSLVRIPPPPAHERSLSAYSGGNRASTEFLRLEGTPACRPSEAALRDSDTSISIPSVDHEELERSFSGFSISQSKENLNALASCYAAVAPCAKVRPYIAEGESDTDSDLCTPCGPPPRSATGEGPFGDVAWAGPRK
KCNQ2 block baseline: second read-out of KCNQ2 block, no call of its own (marks repeat the call); B-score; measured here: initial fluorescence intensity artifact check;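 brightness before thallium and not channel activity; 0 = typical well and far values either way flag optical interference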
The depositor's hits bear a star; i = inactive. An excerpt. The share of hits here may be higher or lower than overall.

Value order: KCNQ2 block, KCNQ2 block baseline
> CC(C)(C)OC(=O)N1CCC(C(=O)N[C@@H](Cc2ccccc2)C(=O)O)(c2ccccc2)CC1
 : i, 0.19
> Cc1ccc2[nH]c(=O)c(N3CCOCC3)c(-c3ccccc3)c2c1
 : i, -1.89
> COc1ccc(C(=O)N=c2sc3c(C)ccc(OC)c3n2C)cc1OC
 : i, -0.84
> CCC(C)n1c(=O)c(C(=O)Nc2ccccc2S(N)(=O)=O)c(O)c2ccccc21 (configuration not stated)
 : i, -0.08
> NC(N)=Nc1nc(C2COc3ccccc3O2)cs1 (configuration not stated)
 : i, -0.6
> CCCC1(C(=O)OC)NC(c2cccc(F)c2)C2C(=O)N(CC)C(=O)C21 (configuration not stated)
 : i, 0.01
> COCCNC(=O)c1onc(CSc2ccc(Cl)cc2)c1C(=O)O
 : i, -2.91
> CCOc1cc(C)nc(NCc2ccccc2)n1
 : i, 0.03
> CCCCN(C)CCCNC(=O)c1ccc2c(c1)N(CC)C(=O)c1ccccc1S2=O (configuration not stated)
 : i, 0.9
> COc1ccc(CNC(=O)COC(=O)CCCOc2ccc(Cl)cc2Cl)cc1OC
 : i, -0.21
> CSc1ncccc1C(=O)OCC(=O)NCCC1=CCCCC1
 : i, -2.21
> O=C(O)c1ccccc1NCc1ccco1
 : i, -1.07
> O=c1[nH]c(CN2CCCCC2)nc2c1C1(CCCCC1)Cc1ccccc1-2
 : i, -0.4
> O=C(COC(=O)/C=C/c1ccc(Br)o1)Nc1ccccc1F
 : i, 0.09
> CC(C)N(Cc1ccccc1)C(=O)CN1C(=O)NC2(CCCc3ccccc32)C1=O (configuration not stated)
 : i, -1.11
> Cc1ccc(S(=O)(=O)Nc2nc3ccccc3nc2Nc2cccc(S(=O)(=O)N3CCCC3)c2)cc1
 : i, 1.45
> COc1ccc(NC(=O)CN(c2cccc(C(F)(F)F)c2)S(C)(=O)=O)cc1OC
 : i, 0.89
> CN(Cc1c(F)cccc1Cl)C(=O)C1CC(=O)N(CCc2ccccc2)C1 (configuration not stated)
 : i, 0.2
> O=C(CC1Nc2ccccc2NC1=O)NCCCN1CCCCCC1 (configuration not stated)
 : i, -1.13
> O=C(COc1ccc(S(=O)(=O)NC2CCCCC2)cc1)NCc1cccnc1
 : i, -0.55
> COC(=O)C1=C(C)N(Cc2ccco2)C(=O)N[C@H]1c1ccc(Br)cc1
 : i, 1.26
> Cc1c(C(=O)NC2CCCc3ccccc32)oc2ccc(S(=O)(=O)N3CCCC3)cc12 (configuration not stated)
 : i, 0.03
> Cc1ccc(C(=O)NN=C2CCCC2)cc1C
 : i, 2.29
> O=C(CSc1nnc(CNc2ccc(F)cc2)o1)N1CCN(C(=O)c2ccco2)CC1
 : i, 1.37
> CC(Oc1ccc2c(-c3ccccc3)cc(=O)oc2c1)C(=O)O (configuration not stated)
 : i, -1.53
> Cc1cccc(C(=O)NNC(=O)C2CCCO2)c1 (configuration not stated)
 : i, 1.27
> COCCn1c(N)c(Sc2ccc([N+](=O)[O-])cc2)c(=O)[nH]c1=O
 : i, -0.04
> N/C(=N\OC(=O)c1ccc([N+](=O)[O-])cc1Cl)c1ccccn1
 : i, -1.25
> Cc1ccc(S(=O)(=O)NNC(=S)Nc2cccc(C)c2C)cc1
 : i, -0.05
> Cc1c(/C=C2\SC(=O)N(CC(=O)Nc3ccc4c(c3)OCO4)C2=O)c2ccccc2n1C
 : i, 0.13
> Cc1ccc(C(=O)Nc2cccc(C(F)(F)F)c2)cc1NC(=O)c1csc(-c2ccncc2)n1
 : i, -0.32
> Cc1csc(SCc2nnc(-c3ccc(Cl)cc3)o2)n1
 : i, 1.08
> O=C(NC(c1ccccc1)c1ccccc1)C1CCCC1
 : i, -0.55
> C=CCn1c(SCC#N)nc2sc(CC)cc2c1=O
 : i, -0.73
> Cc1ccc(-n2[nH]c(=O)c(-c3ccccn3)c2C)cc1
 : i, 1.23
> COC(=O)CCCC1=CC2=CC(=O)C(C)(OC(=O)c3cnc4ccccc4n3)C(=O)C2=CO1 (configuration not stated)
 : i, 4.4
> CCN1C(C)=C(C)S/C1=C1\SC(=S)N(N)C1=O
 : i, 0.47
> Cc1c(Cl)cccc1NC(=O)CSCc1cc(=O)[nH][nH]1
 : i, 0.23
> COC(=O)c1ccc(OCC2c3cc(OC)c(OC)cc3CCN2C(C)=O)cc1 (configuration not stated)
 : i, -0.68
> C/C(CCC(C)C)=N\Nc1cc(C)c2ccccc2n1
 : -8.32*, 0.86*
> CCNc1nc(Oc2ccc(C#N)cc2)cc(C(F)(F)F)n1
 : i, -0.9
> c1ccc(Oc2cccc(Oc3ccccc3)n2)cc1
 : i, 0.02
> O=C(NCCOc1ccccc1)c1cccc(S(=O)(=O)NCc2ccccc2)c1
 : i, 0.12
> COCn1c(C(O)c2ccccc2)cc2ccccc21 (configuration not stated)
 : i, -0.9
> Cn1cccc1C(=O)OCc1ccc(F)cc1
 : i, 1.18
> C/C(=N/NS(=O)(=O)c1ccc(C(C)C)cc1)c1ccncc1
 : i, 1.27
> O=C(c1ccc(Cl)cc1)C1CCN(C(=O)NC2CCCCC2)CC1
 : i, 0.01
> CC(C)(C)NC(=O)COC(=O)c1ccc(S(=O)(=O)N2CCCCCC2)cc1
 : i, -0.47
> CN(C)C(=S)NC(=O)C(c1ccccc1)c1ccccc1
 : i, 0.26
> c1csc(C2Nc3cccc4cccc(c34)N2)c1
 : i, -1.48
> CCn1c(SCC(=O)c2cc(C)n(CC3CCCO3)c2C)nc2ccccc21 (configuration not stated)
 : i, -0.87
> Cc1c(CC(C)C)nc(N)c(C#N)c1-c1ccccc1
 : i, -0.95
> CN1CCN(c2ccc(NC(=O)c3ccc(Oc4ccccc4)cc3)cc2)CC1
 : i, -0.32
> CC1(CCc2ccccc2)NC(=O)N(CC(=O)N2CC(=O)Nc3ccccc32)C1=O (configuration not stated)
 : i, -0.02
> CC1(C)C(=O)N(c2ccccc2F)C(=O)c2ccccc21
 : i, -0.73
> O=C(CN1CCN(c2ccccc2)CC1)Nc1cccc(C(F)(F)F)c1
 : i, -1.24
> COC(=O)C1C(=O)c2c([nH]c(C(=O)OCCOC(C)C)c2C)CC1C (configuration not stated)
 : i, -0.27
> O=C(O)c1cccc(Nc2nc(N3CCOCC3)nc(N3CCOCC3)n2)c1
 : i, 0.91
> CS(=O)(=O)c1ccc2nc(NC(=O)Nc3cccc(Cl)c3)sc2c1
 : i, -0.69
> CN(C)C(CNC(=O)c1ccc([N+](=O)[O-])cc1Cl)c1ccco1 (configuration not stated)
 : i, -0.1

2 compounds drawn at random from those above:
Value order: KCNQ2 block, KCNQ2 block baseline
> CS(=O)(=O)c1ccc2nc(NC(=O)Nc3cccc(Cl)c3)sc2c1
 : i, -0.69
> C/C(=N/NS(=O)(=O)c1ccc(C(C)C)cc1)c1ccncc1
 : i, 1.27

(further entries)
Value order: KCNQ2 block, KCNQ2 block baseline
> COc1ccc(N2CCN(C3CCCN(C(=O)c4cccc(C)n4)C3)CC2)cc1 (configuration not stated)
 : i, -0.42
> COc1cccc(CNS(=O)(=O)c2cc3c(cc2C)n(C)c(=O)c(=O)n3C)c1
 : i, -0.36
> Cc1ccc2c(c1)CC1(CN2C)C(=O)OC2(CCCCC2)OC1=O
 : i, -0.22
> C=CCNC(=O)Nc1ccc(F)c(Cl)c1
 : i, 1.58
> O=C1/C(=N\S(=O)(=O)c2cccs2)C([n+]2cccc(Cc3ccccc3)c2)=C([O-])c2ccccc21
 : i, 0.71
> Cc1cc(C)nc(SCC(=O)Nc2ccc(S(=O)(=O)Nc3onc(C)c3C)cc2)n1
 : i, -0.83
> CC(C(=O)NC1C=CS(=O)(=O)C1)N1C(=O)/C(=C/c2cccc(Cl)c2)SC1=S (configuration not stated)
 : i, 0.88
> COC(=O)Cn1c(CN2CCN(C(=O)c3ccco3)CC2)nc2c1c(=O)n(C)c(=O)n2C
 : i, -0.95
> CCn1c(-c2nn(C)cc2Cl)n[nH]c1=S
 : i, -1.62
> O=[N+]([O-])c1cc(Br)c(Nc2ccccc2)c([N+](=O)[O-])c1
 : i, -0.22
> CCCCc1cc(=O)oc2cc(O)ccc12
 : i, -1.49
> O=C(c1ccc(N2CCN(C(=O)c3cccc(F)c3)CC2)cc1)c1cccc(F)c1
 : i, 1.53
> COCCCNC(=S)Nc1ccc(OC(F)F)cc1C
 : i, 0.18
> COCCNC(=S)N/N=C/c1ccc([N+](=O)[O-])cc1
 : i, -0.09
> Cc1cccc(C)c1NC(=O)COC(=O)C1Cc2ccccc2CN1C(=O)c1ccccc1 (configuration not stated)
 : i, -0.07
> Cc1cccc(-c2nnc(SCC#N)n2C)c1
 : i, -0.98
> C=CCC1(CC=C)CCCN1C(=O)C1CCC(=O)N(CCc2ccc(Cl)cc2)C1 (configuration not stated)
 : -8.21*, 1.08*
> O=C(C1COc2ccccc2O1)N1CCN(c2ccc(F)cc2)CC1 (configuration not stated)
 : i, -0.45
> CC1=C(C(=O)N2CCCC(N3CCN(c4ccccc4C)CC3)C2)OCCO1 (configuration not stated)
 : i, -0.31
> O=C1c2ccccc2OC2(C=Cc3ccccc3O2)N1Cc1ccccc1 (configuration not stated)
 : -8.32*, -1.41*
> CCN(CC)c1ccc(N2C(=O)/C(=C/c3cccs3)SC2=S)cc1
 : i, 0.36
> Cc1nn(C(C)C(=O)NCCCc2ccccc2)c(=O)c2cc3occc3n12 (configuration not stated)
 : i, 0.11
> CC(C)(C)C(=O)Nc1ccccc1C(=O)OCC(=O)c1ccc2c(c1)OCCO2
 : i, -0.52
> C[C@@H](NC(=O)[C@@H]1Cc2ccccc2CN1)C(=O)NCC1CCCO1 (some centres not stated)
 : i, 2.66
> Cn1cccc1/C=C1\SC(=S)N(NC(=O)c2ccccc2O)C1=O
 : i, -2.76
> CCN1C(=O)CC(c2ccccc2)CC1=O
 : i, -1.46
> O=C(COC(=O)c1cc([N+](=O)[O-])ccc1NCc1ccccc1)NCc1ccccc1Cl
 : i, -0.27
> COc1ccc(CN2CCCCC2C)cc1C (configuration not stated)
 : i, -1.85
> O=C(CSc1nc2ncc(Cl)cc2[nH]1)Nc1ccccc1-c1ccccc1
 : i, 0.8
> O=C1c2ccccc2C(Nc2ccc(Cl)cn2)N1c1ccccn1 (configuration not stated)
 : -6.56*, 1.54*

Grouped by structure, the entries above with a cyano group
Value order: KCNQ2 block, KCNQ2 block baseline
> C=CCn1c(SCC#N)nc2sc(CC)cc2c1=O
 : i, -0.73
> CCNc1nc(Oc2ccc(C#N)cc2)cc(C(F)(F)F)n1
 : i, -0.9
> Cc1c(CC(C)C)nc(N)c(C#N)c1-c1ccccc1
 : i, -0.95
> Cc1cccc(-c2nnc(SCC#N)n2C)c1
 : i, -0.98

Later entries:
Value order: KCNQ2 block, KCNQ2 block baseline
> COc1cccc(C(=O)O/N=C(\N)c2ccc(C)cc2)c1
 : i, 0.92
> N#CC1=C(N)C(C#N)(C#N)[C@H](c2ccncc2)[C@H]2CC3(CC=C12)OCCO3
 : i, 0.48
> CCOC(=O)c1ccc(NC(=O)NCc2ccccc2)cc1
 : i, -0.42
> CC(=O)c1ccc(OCC(C)C)c(CC(C(N)=O)C(N)=O)c1
 : i, 1.39
> Cc1[nH][nH]c(=O)c1N=Nc1ccccc1Cl
 : i, 0.32
> CC(C)(C)NC(=O)/C(=C/c1ccccc1F)NC(=O)c1ccc([N+](=O)[O-])cc1
 : i, -0.03
> CC(Sc1nnc(-c2cccnc2)n1C)C(=O)N1CCOCC1 (configuration not stated)
 : i, -0.09
> COc1ccc(CCNC(=O)Cc2ccc([N+](=O)[O-])cc2)cc1OC
 : i, 2.41
> Cc1c(CNC(=O)c2c([N+](=O)[O-])cnn2C)cnn1C
 : i, -0.56
> Cc1sc(NC(=O)C2=COCCO2)nc1-c1ccc(Cl)cc1
 : i, -0.98
> COc1ccc(S(=O)(=O)N2CCN(c3cc(-c4ccccc4)nc4ncnn34)CC2)cc1
 : i, -0.01
> COC(=O)Cn1c(CN2CCOCC2)nc2c1c(=O)[nH]c(=O)n2C
 : i, 0.84
> CN1CC[n+]2cnc3ccccc3c21
 : i, -0.22
> CCn1c(C)c(C)c2cc(C(=O)N3CCN(c4cccc(C)c4C)CC3)ccc21
 : i, -0.43
> CC1CCc2c(sc3nc(CSc4ncn[nH]4)[nH]c(=O)c23)C1 (configuration not stated)
 : i, 2.25
> COc1cccc(-c2cc(C(=O)N3CCc4ccccc4C3)no2)c1
 : i, -2.28
> COc1ccc(-c2ccc(=O)n(CC(=O)Nc3ccc4c(c3)OCCO4)n2)cc1
 : i, -1.34
> COC(=O)c1cc(C(=O)Nc2cc(C)ccn2)cc([N+](=O)[O-])c1
 : i, 0.01
> N=c1occ(C(=O)c2cc(F)ccc2O)cc1C(=O)NC1CCCCC1
 : i, 0.65
> Nc1cc(=O)[nH]c(SCC(=O)Nc2ccc(Br)cc2)n1
 : i, 2.06
> COc1ccc(N2CC(C(=O)NCc3nnnn3-c3ccc(C)c(C)c3)CC2=O)cc1 (configuration not stated)
 : i, -0.84
> CNC(=O)c1ccccc1NC(=O)c1cccc(S(=O)(=O)N2CCCCC2)c1
 : i, -0.02
> COc1ccc(Cn2nnc3c(=O)[nH]c(C4CCCN(C(=O)c5ccccc5)C4)nc32)cc1 (configuration not stated)
 : i, -1.08
> COc1ccccc1NC(c1cccnc1)c1ccc2cccnc2c1O (configuration not stated)
 : i, -0.72

Ordered by value in KCNQ2 block baseline (lowest first): some entries from above.
SMILES	KCNQ2 block baseline
CC(Sc1nnc(-c2cccnc2)n1C)C(=O)N1CCOCC1 (configuration not stated)	-0.09
Cc1[nH][nH]c(=O)c1N=Nc1ccccc1Cl	0.32
COc1cccc(C(=O)O/N=C(\N)c2ccc(C)cc2)c1	0.92
CC(=O)c1ccc(OCC(C)C)c(CC(C(N)=O)C(N)=O)c1	1.39
CC1CCc2c(sc3nc(CSc4ncn[nH]4)[nH]c(=O)c23)C1 (configuration not stated)	2.25
COc1ccc(CCNC(=O)Cc2ccc([N+](=O)[O-])cc2)cc1OC	2.41
